# From PubChem BioAssay
# HPGD inh: HPGD (human) dehydrogenase inhibition. purified HPGD, NADH fluorescence kinetic, PGE2 substrate. 150,000 compounds, 4.3% hits. P15428. Potency, µM, for inactives: top-dose activity change, negative = inhibition, actives largely listed as inhibitors; active = well fitted inhibition curve with a large enough effect (not every such curve was filed as active); inconclusive = small, poorly fitted or top-dose-only effect, or another doubt; inactive = no such curve, though single readings can be large or run the other way;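 note: top concentration of the series not given in the record; plate controls included wells without enzyme; inactives centre near -10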
# Target sequence (P15428 whole entry, looked up): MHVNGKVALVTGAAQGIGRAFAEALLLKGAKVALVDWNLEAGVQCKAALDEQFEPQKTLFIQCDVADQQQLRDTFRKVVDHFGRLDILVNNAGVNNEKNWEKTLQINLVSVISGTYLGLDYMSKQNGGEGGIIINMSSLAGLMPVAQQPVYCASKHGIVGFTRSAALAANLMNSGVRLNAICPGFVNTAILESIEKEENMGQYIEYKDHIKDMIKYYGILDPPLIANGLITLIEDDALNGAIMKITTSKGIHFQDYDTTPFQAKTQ
#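 20 nM HPGD preincubated 15 min at room temperature with compound in 50 mM Tris-HCl pH 8, 0.01% Tween 20. Started with 1 mM NAD+ and 30 uM prostaglandin E2; NADH fluorescence (360/450 nm) read 5 times over 30-s intervals, last minus first.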
# Numbers without * were called inactive; u = inconclusive; & = joins results of further samples. % is set by controls: 0 for no effect and ±100 for the full control effect; potency is the fitted concentration of half-maximal effect.
Compound | HPGD inh
O=C(Nc1ccc(NC(=O)C2CCCCC2)nc1)c1ccco1 | -14%
CC(=O)C1=C(O)CCC1=NCCc1ccccc1 | -7%
O=C1CN(C(=O)c2ccc(Br)o2)C(c2ccc(F)cc2)c2cc(Cl)ccc2N1 (stereo not drawn) | -20%
CC1CCc2nc(NC(=O)CN3CCN(c4ccc(F)cc4)CC3)sc2C1 (stereo not drawn) | -12%
CCN(CC)CCNC(=O)CS(=O)Cc1nc(-c2ccc(C)cc2)oc1C (stereo not drawn) | -14%
Cc1cccc(C(=O)Nc2cccc(C(=O)N3CCOCC3)c2)c1 | -11%
CC(C(=O)N1CCc2ccccc21)N1CCN(c2ccccn2)CC1 (stereo not drawn) | -12%
COC(=O)c1sccc1NC(=O)c1ccccc1[N+](=O)[O-] | -18%
CCCCCCCCSc1n[nH]c(N)n1 | -16%
O=C(Nc1cc(C(F)(F)F)ccc1-n1cncn1)c1ccc(-c2ccccc2)cc1 | u
O=C(NCCCn1ccnc1)Nc1cccc(Cl)c1 | -8%
O=C1c2ccc3c4c(ccc(c24)C(=O)N1NC(=O)C(F)(F)F)CC3 | u

# Quoted at random: six entries already listed, in no set order.
Compound | HPGD inh
Cc1cccc(C(=O)Nc2cccc(C(=O)N3CCOCC3)c2)c1 | -11%
COC(=O)c1sccc1NC(=O)c1ccccc1[N+](=O)[O-] | -18%
O=C1c2ccc3c4c(ccc(c24)C(=O)N1NC(=O)C(F)(F)F)CC3 | u
CCCCCCCCSc1n[nH]c(N)n1 | -16%
CC(C(=O)N1CCc2ccccc21)N1CCN(c2ccccn2)CC1 (stereo not drawn) | -12%
O=C(Nc1ccc(NC(=O)C2CCCCC2)nc1)c1ccco1 | -14%

# (continued)
Compound | HPGD inh
CCC(=O)NC(Nc1sc2c(c1C(=O)OC)CCC2)C(Cl)(Cl)Cl (stereo not drawn) | -19%
CCCC(=O)Nc1cc(C)c(NC(=O)c2ccncc2)cn1 | -13%
CC(C)Cc1cc(C(=O)Nc2cccnc2)no1 | -17%
O=C(COC(=O)c1sc2ccccc2c1Cl)NC1CCCCC1 | -22%
N=c1c(C(=O)NCc2ccc(F)cc2)cc2c(=O)n3ccccc3nc2n1Cc1cccnc1 | u
CN(C)CCCCl | -1%
CCOc1ccc(N(CC)S(=O)(=O)c2ccc3c(c2)n(C)c(=O)c(=O)n3C)cc1 | -11%
CC1CCc2c(sc(NC(=O)C(=O)NCc3ccco3)c2C#N)C1 (stereo not drawn) | -14%
Cc1noc(NS(=O)(=O)c2ccc(N/C=C/C(=O)c3ccccc3)cc2)c1C | u
C/C(=C1/SC(N2CCOCC2)=NC1=O)c1ccc(Cl)cc1 | -11%
Cn1cc(/C=N/n2cnc3scc(-c4ccc(Cl)cc4)c3c2=O)c2ccccc21 | u
CC(C)(C)C(=O)[C@H](C(c1ccccc1)N1CCOCC1)N1CCOCC1 (stereo partly drawn) | -5%
COc1c(Cl)cc(-c2noc(C)c2C(=O)NCc2ccc3c(c2)OCO3)cc1Cl | -6%
CSc1cc(-c2ccc(Cl)cc2)c(C(=O)NN)s1 | -2%
Nc1cc(N)nc(SCC(=O)Nc2ccc(Br)cc2Cl)n1 | -12%
Cc1nn(C(C)C(=O)Nc2sc3c(c2C#N)CCCC3)c(C)c1[N+](=O)[O-] (stereo not drawn) | -4%
COc1ccc(CN(CC2CCCO2)C(=O)CN2C(=O)COc3ccccc32)cc1OC (stereo not drawn) | -6%
CC1(C(=O)O)CCC(C(=O)Nc2ccccc2)C1(C)C (stereo not drawn) | -3%
CC(C)c1cccc(C(C)C)c1NC(=O)CNCc1ccccc1F | -5%
CCN(CC)C(=O)c1cc2c(=O)n3ccccc3nc2s1 | u
CC1(C(=O)NC2CCCCCCC2)CC1(Cl)Cl (stereo not drawn) | u
Cc1cc2nc(SCCOC(=O)Nc3ccccc3)nc(C)c2cc1C | -21%
CCOC(=O)c1sc2nc(C)nc(SCC(N)=O)c2c1C | 2%
O=C(CCCc1nc2ccccc2s1)NCc1ccccc1 | 14µM*

# Entries listed so far printed as active in HPGD inh.
Compound | HPGD inh
O=C(CCCc1nc2ccccc2s1)NCc1ccccc1 | 14µM*

# Remaining list, next part:
Compound | HPGD inh
O=C1CC(Sc2nnnn2C2CCCCC2)C(=O)N1c1ccccc1 (stereo not drawn) | u
C=CCc1cc(C)ccc1OCCOCCn1ccnc1 | 1%
Cn1nnnc1SCC(=O)Nc1ccccc1Cl | -6%
COc1ccc(C(=O)N2N=C3CC(C)(C)OCC3C2c2ccccc2)cc1 (stereo not drawn) | -1%
COc1ccc(/C=N/Nc2nc3ccccc3o2)cc1OC | -22%
O=C1C2C3C=CC(C3)C2C(=O)N1c1cccc2cccnc12 (stereo not drawn) | -6%
Cn1nnnc1SCC(=O)N1c2ccccc2Sc2ccc(Cl)cc21 | -4%
O=C(N1CCOCC1)N1CCN(c2ccc(F)cc2)CC1 | -6%
C=CCN1c2ccccc2[C@]23C[C@@H](C(=O)OC)N(C(=O)C4CCC4)C2=NC(C(=O)OC)=C(C(=O)OC)[C@H]13 | -6%
CCC(=O)Nc1cc(C(=O)OCC(=O)c2ccc(Cl)cc2Cl)ccc1C | 0%
CCOC(=O)N1CCN(C2CC(=O)N(c3ccc(C)cc3)C2=O)CC1 (stereo not drawn) | -1%
Nc1nc(SCC(=O)NCc2ccccc2)n[nH]1 | -16%
COc1cccc(/C=N/NC(=O)CSc2ccccc2C)c1OC | u
Cc1ccc(S(=O)(=O)N2CCN(C(=O)c3cccc(F)c3)CC2)cc1 | -12%
c1ccc(CC2CCN(C3=Nc4cccc5cccc3c45)CC2)cc1 | -9%
Cc1ccc(C)n1-c1ccc(C(=O)N2CCOCC2)cc1 | u
O=C(O)c1cccc2cccc(-c3cccc4cccc(C(=O)O)c34)c12 | -9%
Cc1c(C(=O)Nc2ccc(OC(F)(F)F)cc2)sc2nc3n(c(=O)c12)CCC3 | u
CN(C)c1ccc(CNn2cnnc2SCc2ccccc2F)cc1 | -6%
Cc1ccc(NC(=O)COc2ccc(CCO)cc2-n2nc3ccccc3n2)cc1C | u
CCOC(=O)c1ccc(Nc2ncnc3nc[nH]c23)cc1 | u
CCOC(=O)N1CCC(NC(=O)CCN2C(=O)C3C4C=CC(C4)C3C2=O)CC1 (stereo not drawn) | -7%
O=[N+]([O-])c1ccc2nc(NCCCO)nc(-c3ccccc3)c2c1 | 14µM*
O=C(c1cc(C(F)(F)F)cc(C(F)(F)F)c1)N1CCC2(CC1)CN(c1ncccn1)C2 | -17%
O=C(CSc1nc2c(c(=O)n1-c1ccc(Br)cc1)SCC2)Nc1nccs1 | -11%
COc1ccc(N2CCN(CCCNC(=O)CC3Oc4ccc(C)cc4NC3=O)CC2)cc1 (stereo not drawn) | -11%
CCOc1nc(-c2ccccc2Cl)ccc1C#N | -18%
Cc1ccccc1CN1CCN(CC2CC3C=CC2C3)CC1 (stereo not drawn) | 3%
CC1(C)CC(=O)C2=C(C1)Oc1nc3ccccc3cc1C2C(C#N)C#N (stereo not drawn) | -20%
Cc1cc(C)n2nc(CCc3ccccc3)nc2n1 | -6%
Cc1ccccc1S(=O)(=O)NNC(=O)C(=O)NNc1ccccn1 | -9%
O=C(COC(=O)CC12CC3CC(CC(C3)C1)C2)Nc1ncc(Cl)cc1Cl | -10%
O=C(c1ccco1)N1CCN(C(=O)c2cc(-c3ccccn3)nc3ccc(Cl)cc23)CC1 | u
Cc1ccc(-n2nnc3c(=O)oc4ccccc4c32)cc1 | -19%
COc1cc(C(=O)Nc2nc3ccc(S(=O)(=O)N4CCOCC4)cc3s2)cc(OC)c1OC | -28%
CC(C)CCn1c(SCC(=O)OCn2nnc3ccccc3c2=O)nc2ccccc2c1=O | 0%
COc1cccc(-c2nnc(NC(=O)Cc3cccs3)s2)c1 | -33%
CCCCCC(=O)N/N=C(\C)c1ccc(N2CCCCC2)cc1 | -22%
O=C(O)CN=C1NC2(CCCCC2)Cc2ccccc21 | -13%
COCCSc1nnc(NC(=O)CSCc2ccccc2)s1 | -16%
CCc1ccccc1NS(=O)(=O)c1cc(C)ccc1OC | -1%
O=C(c1ccncc1)N1CCC[C@@]2(CCN(c3ccccn3)C2)C1 | -8%
CCn1ncc(CNC(=O)C2(C)CC2(Br)Br)c1C (stereo not drawn) | 14µM*
Cc1cc(NC(=O)CSc2nnc(-c3ccccc3)n2Cc2ccco2)no1 | -12%
N[C@H](Cn1ccc(=O)c(O)c1)C(=O)O | -12%&1%
CCOc1cccc(-c2nnc3sc(C4CCCCC4)nn23)c1 | 32µM*
Cc1c(C2C(C#N)=C(N)N(c3ccccc3C#N)C3=C2C(=O)CCC3)cnn1C (stereo not drawn) | -14%
COC(=O)c1c(NC(=O)CC2SCC(C(=O)OC)NC2=O)sc2c1CCCC2 (stereo not drawn) | -12%
COc1ccc(NC(=O)CCNS(=O)(=O)c2ccc(Br)s2)cc1 | -11%
Cn1c(N)c(C(=O)COC(=O)C2CCCCC2)c(=O)n(C)c1=O | 7%
COc1cc(/C=c2\sc3nc(=O)c(-c4ccccc4)nn3c2=O)ccc1OCCC(C)C | -10%
COc1ccc(OC)c(-c2nc3c(C)n[nH]c(=O)c3[nH]2)c1 | -28%
C#CCSc1nnc(-c2ccc(C)cc2)o1 | -3%
CCOc1cccc2cc(C(=O)Nc3nccs3)c(=O)oc12 | -4%
CC(=O)NC1C(=O)N(CCc2ccccc2)c2ccc(Br)cc21 (stereo not drawn) | -15%
COc1ccc(Cn2c(C)c(C)c(C#N)c2NC(=O)Nc2ccc(F)cc2)cc1 | -10%
CC(=O)N1CC2(CC2)CC1c1ccccc1 (stereo not drawn) | -7%
CCOC(=O)c1c(-c2ccccc2)nc2ccc(Cl)cn12 | -1%
O=C(N/N=C/c1ccncc1)c1ccccc1OCc1ccc(Br)cc1 | 1%
CS(=O)(=O)N1CCC(C(=O)Nc2cccc(C(F)(F)F)c2)CC1 | -4%

# Later entries.
Compound | HPGD inh
O/N=C\c1cccn1-c1ccc(Br)cc1 | -18%
O=C(O)CCC(=O)NCCn1c(-c2ccccc2)csc1=Nc1ccccc1 | -4%
CC(C)(C)c1cc(C(=O)N/N=C/c2ccccc2O)n(-c2ccccc2)n1 | -19%
CCOC(=O)c1c(N)sn(-c2ccccc2)c1=S | -13%
CCCn1c(SCC(N)=O)nnc1-c1ccco1 | -4%
COc1ccc(S(=O)(=O)NCC2CCC(C(=O)N3CCC4(CC3)OCCO4)CC2)cc1 (stereo not drawn) | -6%
COC(=O)c1cc(NC(=O)Nc2cccc(Cl)c2)ccc1Cl | -15%
CCn1c(SCC(=O)NCCc2ccccc2)nnc1-c1cccs1 | 28µM*
CCc1ccccc1NC(=O)/C(C#N)=C\c1ccc(Sc2ccccc2)o1 | -18%
N#Cc1ccc(OCCOCCNC2CCCC2)cc1 | -2%
CCCCCn1c(SCCC(C)C)nc2c1c(=O)[nH]c(=O)n2C | 20µM*
COc1cc2c(cc1OC)C1(CCCC1)C(N)=C2C#N | -12%
CN1CC[C@H](CN2c3ccccc3Sc3ccccc32)C1 | -6%
CCc1nnc(NC(=O)c2ccc(Cl)c(S(=O)(=O)N3CCc4ccccc43)c2)s1 | u
CCOC1Cc2ccccc2N(C(N)=O)c2ccccc21 (stereo not drawn) | 1%
CN(C)S(=O)(=O)c1ccc(C(=O)NCCSc2ccccc2)cc1 | -4%
Clc1ccc(-n2ncc3c(NCc4cccs4)ncnc32)cc1 | 0%
CCOc1ccc(-c2onc(C(F)(F)F)c2-c2cscn2)c(O)c1 | -7%
Cc1cc(C(=O)NC2CCCC2)on1 | -9%
COC(=O)c1ccccc1NC(=O)C12CCC(C)(C(=O)O1)C2(C)C (stereo not drawn) | -9%
Cn1cccc1/C=C(/C#N)C(N)=S | -16%
CCCN(c1ccc(OCC)cc1)c1ncnc2nc[nH]c12 | -12%
O=C(CSc1nnnn1C1CCCCC1)NCc1ccc2c(c1)OCO2 | -2%
Cc1ccc(S(=O)(=O)ON=C2CCN(S(=O)(=O)c3ccccc3)CC2)cc1 | -7%
CCOC(=O)C1=C(c2ccccc2)c2ccccc2OC1C(=O)OCC (stereo not drawn) | -9%
CC1CC(C)(C)NC(=S)S1 (stereo not drawn) | 22µM*
Cc1ccccc1C(=O)c1cccn1CC(=O)NCc1ccco1 | -1%
O=C(O)[C@H]1CC=C[C@H]2CCN(Cc3ccc(Cl)c(Cl)c3)C(=O)[C@@H]12 | -7%
COc1ccc(N2C(=O)CSC23C(=O)N2CCCc4cccc3c42)cc1 (stereo not drawn) | -7%
O=C(N/N=C/c1cccn1-c1cccc(C(=O)O)c1)Nc1ccccc1 | -24%
CCOc1cc2[nH]c(=O)n(Cc3ccccc3)c(=O)c2cc1OCC | -6%
CN1CCN(Cc2c(O)ccc3c2oc(=O)c2ccccc23)CC1 | -14%
O=C(O)/C=C\C(=O)NCc1ccccc1 | 1%
CC1CC1C(=O)Nc1nc(-c2ccccn2)cs1 (stereo not drawn) | 14µM*
O=C(CCCn1c(=O)c2sccc2n(Cc2cc(=O)n3ccccc3n2)c1=O)NCc1ccco1 | u
CCOC(=O)c1sc2nccc(N(C)C)c2c1N=CN(C)C | 6%
COc1ccc(CN2C(=O)CCC2(C)C(=O)NC2CCCCC2)c(OC)c1 (stereo not drawn) | -6%
CCOC(=O)/C(=C/c1c[nH]c2ccccc12)NC(C)=O | -8%
Fc1ccc(NC(=S)NCc2ccccc2Cl)cc1 | -11%
c1ccc(-c2cc(-c3ccc(N4CCOCC4)cc3)nc3ccccc23)cc1 | u

# This is a subset. The share of hits here may be higher or lower than overall.
